Source: PubChem
T cruzi repl: T. cruzi replication inhibition; T. cruzi beta-gal in NIH3T3, luminescence, 90 h; inhibition, % (concentration not given with the values); 300,000 tested, 1.4% active; AID 1885;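 active means mean inhibition across valid replicates above about 55%, limit read from the data; inconclusive means mean below that limit but half or more replicates reach it; inactive means mean below it, under half of replicates reach it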;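 further: signal also drops with host cell toxicity which is not excluded here; 0% = plate median of DMSO wells and 100% = zero luminescence signal; higher percent means less beta-gal luminescence so fewer parasites; stock transfer was 50 nL into about 50 µL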
A1 inh: inhibitors of the anti-apoptotic protein A1, read as caspase activation | MEF A1-2A-BIM cells, Caspase-Glo 3/7 luminescence, 3 h; percent of clofoctol response, vehicle zero | caspase activation, % (concentration not given with the values) | 330,000 tested, 0.066% active;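 active means over half of replicate activation scores above 10%, or exactly half above 10 with the replicate mean above 10; inconclusive means replicate mean below 10 yet half the replicates above 10; inactive means over half of replicates below 10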;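 further: wells of about 30 µL received 50 nL stock; many hits fall short of the cut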
LANA-H2B inh: blocks KSHV LANA binding to histone H2A/H2B. Q9QR71. cell-free LANA-H2A/H2B peptide, fluorescence polarization. inhibition, % (test concentration not listed). 320,000 tested, 0.6% active; in the data active means inhibition mostly above about 10%, no sharp cut-off; inactive means mostly below about 6.7%;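 further: stock transfer was 7.5 nL into about 10 µL; 0% = median of vehicle wells and 100% = median of positive control wells; one replicate is shown; the record names a cut of 25% in any replicate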
RanGTP-Imp inh: disruptors of Ran-importin-beta complex formation – biochemical, FRET, CFP-Ran, YFP-importin-beta, homogeneous, primary screen; cell-free CFP-Ran/YFP-importin-beta FRET ratio; inhibition, % (test concentration not listed); 300,000 tested, 1.1% active;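 active means most replicates above 15%; inconclusive means exactly half above 15%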;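 further: 0% = DMSO wells and 100% = Ran loaded with GDP instead of GTP; wells of about 40 µL received 100 nL stock; the first replicate is given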
UCH37 inh: human UCH37 deubiquitinating enzyme inhibition | Q9Y5K5 | purified proteasome/UCH37, Ub-AMC cleavage fluorescence | inhibition, % (concentration not given with the values) | 330,000 tested, 0.33% active;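 active means mean of two replicates above 20%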;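 further: 0% = compound-free wells with enzyme and 100% = wells lacking proteasome; stock transfer was 100 nL into about 20 µL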
Target sequence (Q9Y5K5 whole entry, looked up): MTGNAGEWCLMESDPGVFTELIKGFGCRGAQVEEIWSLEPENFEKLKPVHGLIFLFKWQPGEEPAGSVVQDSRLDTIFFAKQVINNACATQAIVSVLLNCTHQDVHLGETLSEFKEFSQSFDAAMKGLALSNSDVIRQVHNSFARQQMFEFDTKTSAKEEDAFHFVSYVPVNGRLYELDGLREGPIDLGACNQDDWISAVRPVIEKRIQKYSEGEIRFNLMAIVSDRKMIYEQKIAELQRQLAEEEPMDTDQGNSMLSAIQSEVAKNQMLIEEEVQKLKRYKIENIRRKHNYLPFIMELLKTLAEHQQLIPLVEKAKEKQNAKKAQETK
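Schedule: 30 min plus 25 min, room temperature / Material: human UCH37 within purified proteasomes / Technique: AMC fluorescence intensity at 355/460 nm / Buffer or medium: pH 7.4 Tris-HCl (50 mM) with ovalbumin, ATP-MgCl2, DTT / Controls: wells without proteasome as full block, compound-free enzyme plus substrate as uninhibited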
Beta cell apopt: blocks beta cell apoptosis. AID 435005. protection from apoptosis, % (test concentration not listed). INS-1E cytokine-induced death, ATP luminescence, 48 h; percent of positive-control rescue, neutral wells zero. 300,000 tested, 0.8% active;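 active means all replicates at 75% or more, or half of them and the mean; inconclusive means half reach 75% but not the mean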;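 further: 0% = cytokine-treated negative control wells and 100% = positive control rescue; higher means more ATP so stronger rescue from cytokine killing; wells of about 40 µL received 100 nL stock; the first replicate is given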
Calb FLC: affects C. albicans growth with fluconazole; growth inhibition, % (test concentration not listed); C. albicans CaCi-2 (fluconazole-resistant clinical isolate) + fluconazole, Alamar Blue growth, 48 h; 300,000 tested, 0.57% active; AID 1979;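 active means most replicates above 75%; inconclusive means exactly half above 75%; inactive means most below 75%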;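 further: all wells also contain fluconazole at 8 µg/ml as a sub-toxic cotreatment; 0% = median of DMSO wells and 100% = median of geldanamycin control wells; wells of about 8 µL received 7.5 nL stock; the first replicate is given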
B2AR ag: agonists of human beta-2 adrenergic receptor inducing internalization. Am2.2-beta2AR cells, FAP receptor internalization, flow cytometry; reference of the scale not given here. response, % (no concentration beside the values). 340,000 tested, 0.43% active. AID 504454;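 active means response above a set limit, near 3 SD of response in nonfluorescent compounds, cut at about 42% in these data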;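 further: stock transfer was 100 nL into about 11 µL; a reference agonist was the positive control; negative values mostly stem from fluorescent compounds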
Target sequence (P07550 whole entry, looked up): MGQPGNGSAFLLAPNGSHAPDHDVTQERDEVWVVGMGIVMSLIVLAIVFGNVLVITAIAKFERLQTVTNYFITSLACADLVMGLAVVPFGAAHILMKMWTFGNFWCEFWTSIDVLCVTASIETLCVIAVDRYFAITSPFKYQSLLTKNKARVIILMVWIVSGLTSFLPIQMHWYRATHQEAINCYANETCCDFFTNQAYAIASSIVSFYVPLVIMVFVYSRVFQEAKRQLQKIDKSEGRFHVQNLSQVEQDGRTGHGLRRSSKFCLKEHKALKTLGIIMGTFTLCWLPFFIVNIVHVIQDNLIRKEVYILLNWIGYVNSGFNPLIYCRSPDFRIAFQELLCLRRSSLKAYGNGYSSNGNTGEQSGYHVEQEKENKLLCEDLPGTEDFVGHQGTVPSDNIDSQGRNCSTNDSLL
Numbers without * were called inactive; ? = inconclusive; nt = no result given.

structure	T cruzi repl	A1 inh	LANA-H2B inh	RanGTP-Imp inh	UCH37 inh	Beta cell apopt	Calb FLC	B2AR ag
C=CCOc1c(Br)cc(/C=C2/NC(=S)N(C(C)=O)C2=O)cc1OC	6	-0.1	-7.5	-3.6	2.4	34	-21	17
COc1ccc(-c2nc(NC(=O)CSCCO)sc2C)cc1	-6	0.3	-9.8	-0.1	4.8	5	-5	1
COc1cccc(CNC(=O)Cn2cc3c(n2)CCCC3)c1	6	-0.2	12	4.1	-0.8	-4	1	2
CC(=O)c1ccccc1OCCOCCOCCOc1ccccc1C(C)=O	13	1.6	1.9	?	2.2	-4	-1	1
CC(C)(C)NC(=S)NNC(=O)c1ccc2ncccc2c1	-20	-1.6	-0.1	-5.2	5.0	2	1	-4
CC(=O)NC(CC(=O)N(Cc1ccccc1)c1cccc(C)c1)c1ccccc1 (configuration not stated)	10	0.2	0.9	2.9	0.5	-1	-5	4
CC(Sc1nc(-c2ccccc2)cc(C(F)(F)F)n1)C(=O)O (configuration not stated)	-6	-0.6	1.0	2.2	5.5	nt	-3	6
C/C(=N\NC(=O)CN1CCN(S(=O)(=O)c2ccc(C)cc2)CC1)c1ccc(O)cc1	3	-0.6	-3.3	1.7	nt	-6	4	5
CC1=Nc2ccccc2N=C(NC(=O)c2ccccc2)C1c1ccccc1 (configuration not stated)	5	0.3	-5.7	0.8	nt	6	2	0
Nc1c(-c2ccccc2)cnc2cc(-c3ccccc3)nn12	18	nt	nt	-1.1	-26	nt	-26	2
CC1(C)Cc2c(ccc3ccccc23)C(=O)N1	13	-0.1	-3.0	-1.0	-3.6	nt	29	2
CCOC(=O)C1CCCN(S(=O)(=O)c2c(C(=O)N3CCCCC3)c(C)n(C)c2C)C1 (configuration not stated)	14	0.5	3.9	-0.4	-2.2	1	-1	17
C=CCn1cccc(C(=O)Nc2cc(OC)cc(OC)c2)c1=O	8	-0.1	0.5	?	8.0	-2	?	3
COc1cc([N+](=O)[O-])cc(/C=C2/SC(=S)N(Cc3ccccc3)C2=O)c1O	11	1.2	-5.3	1.5	21*	17	?	-20
O=C(CN(C(=O)c1nsc(Cl)c1Cl)c1ccc(F)cc1)NC1CCCC1	0	-0.6	-1.5	3.3	2.8	2	-4	3

structure	T cruzi repl	A1 inh	LANA-H2B inh	RanGTP-Imp inh	UCH37 inh	Beta cell apopt	Calb FLC	B2AR ag
Cc1ccc(C)c(NC(=O)CN(C)C(=O)c2oc3c(Cl)cccc3c2C)c1	16	0.4	-1.2	0.1	3.2	-8	-2	5
COc1ccc(S(=O)(=O)N2CCOCC2)cc1NC(=O)c1sccc1C	nt	-0.1	4.1	nt	3.4	-2	nt	0
Cc1ccc(C(=O)N2CCNC(=O)C2CC(=O)Nc2ccccc2)cc1 (configuration not stated)	-4	-0.9	-8.1	1.4	0.7	-3	-1	-2
CCN(CC)C(=O)c1n[nH]c(=O)c2ccccc12	-9	0.4	-12	-4.3	1.7	-1	-23	-4
Cc1ccc2cc3cc(C(=O)NC4CC4)oc3nc2c1	6	0.7	4.2	0.4	-37	-3	10	-7
Cc1cc(C(=O)COC(=O)CC2Sc3ccccc3NC2=O)c(C)n1-c1cccc(C(F)(F)F)c1 (configuration not stated)	-5	0.5	-3.4	5.0	0.4	-1	13	-5
Cc1cc(-c2nsc(=O)o2)c(S(C)(=O)=O)s1	-2	0.5	2.2	-3.5	5.8	-2	-11	10
O=S1(=O)CCN(Cc2ccccc2Cl)CC1	-11	0.4	2.2	1.5	1.0	1	5	-1
Cc1ccc(C)c(OCc2nnc(NC(=O)c3ccc4c(c3)OCO4)s2)c1	-7	-0.4	7.0	-0.2	-0.4	0	1	2
CCOC(=O)N1CCN(C(=O)CNS(=O)(=O)c2cccs2)CC1	-3	0.5	-2.1	4.6	4.6	nt	18	-1
CCOc1ccccc1CN1CCNC(=O)C1CC(=O)NCc1nccn1CC (configuration not stated)	5	1.4	-3.7	3.0	-1.9	0	-2	-5
O=C(CCN1CCN(c2ccccc2)CC1)Nc1ccc2c(c1)OCO2	-14	0.1	0.5	6.7	2.9	-1	-26	-3
CCCn1c(NCc2cccs2)nc2ccccc21	-2	1.0	-0.4	-0.4	2.5	-7	2	1
COc1ccc2ccccc2c1CN1CCN(C(=O)c2ccco2)CC1	16	0.0	4.2	4.1	3.2	-2	13	0
Cc1ccc(-n2ccnc2SCC(=O)c2c(N)n(C3CC3)c(=O)[nH]c2=O)cc1C	nt	-0.3	1.7	nt	4.5	-3	nt	10

structure	T cruzi repl	A1 inh	LANA-H2B inh	RanGTP-Imp inh	UCH37 inh	Beta cell apopt	Calb FLC	B2AR ag
CCCc1cc(=O)oc2cc(C)cc(OCC(=O)NCc3cccnc3)c12	-2	-0.3	-3.8	0.2	-116	3	33	0
O=[N+]([O-])c1cccc(-c2noc(-c3ccco3)n2)c1	8	-0.8	-6.2	0.5	2.0	4	3	-8
N#CC1(NC(=O)COC(=O)c2ccc(Cl)nc2)CCCCC1	-5	-0.8	7.0	nt	3.4	1	1	6
COc1ccc(CNCC(O)COCc2cccs2)cc1 (configuration not stated)	36	-0.1	-2.8	-5.3	-0.7	-9	-31	-10
NC[C@@]12CCCC1C1CCC2C1 (some centres not stated)	-6	1.1	-1.5	2.7	nt	3	-7	nt
Cc1cc(C(=O)COC(=O)Cc2n[nH]c(=O)c3ccccc23)c(C)n1-c1cccc(C(F)(F)F)c1	13	0.0	3.6	-1.2	2.2	9	1	-6
COc1ccccc1C(=O)CN1C(=O)NC2(CCCCCC2)C1=O	nt	1.9	-0.7	nt	1.8	6	nt	1
Cc1ccc2c(c1)C1(C(=O)N2C)N2CC3(C)CN1CC(C)(C2)C3=O (configuration not stated)	-3	1.2	4.5	3.3	1.4	nt	-1	11
CCOC(=O)c1c(NC(=O)c2cc3n(n2)C(C(F)(F)F)CC(c2ccccc2)N3)sc(C)c1C (configuration not stated)	4	-0.1	-6.3	7.5	-256	16	17	4
Cc1nn(Cc2c(Cl)cccc2Cl)c(C)c1NC(=O)Cn1nc([N+](=O)[O-])c(Cl)c1C	17	0.3	3.2	2.9	-0.9	-3	-6	7
C=CCn1c(N)c(C(=O)NCc2ccco2)sc1=S	-13	0.2	0.9	-3.1	10	-7	-2	-3
COCCN1CCn2c(nc3cc(NC(=O)c4cccs4)ccc32)C1	-3	0.6	-4.2	3.3	-2.1	-4	-5	0
CCC(CC)C(=O)Nc1cccc(/C(C)=N\NC(=O)c2ccc(C)s2)c1	6	1.6	1.1	-1.5	nt	-2	-7	8
O=C(NC1CC1)c1ccc(CSCc2cccc(F)c2)o1	-14	0.3	11	?	2.0	nt	-1	-3
CCOc1ccccc1Oc1cn[nH]c1-c1ccc(O)cc1O	-16	-0.6	-2.4	-1.0	3.5	7	-2	1

structure	T cruzi repl	A1 inh	LANA-H2B inh	RanGTP-Imp inh	UCH37 inh	Beta cell apopt	Calb FLC	B2AR ag
CC(=O)Nc1ccc2nc3c(=O)n(C)c(=O)n(C)c3nc2c1	-5	-0.9	1.4	-21	-101	nt	16	-169
O=C(Nc1ccc(-c2nnc(-c3ccccc3)o2)cc1)c1ccc(Br)o1	16	-0.7	0.5	?	-0.8	18	-2	12
CC(=O)c1sc(NC(=O)C2CCN(C(=O)c3ccc(F)cc3)CC2)nc1-c1ccccc1	47	0.2	-1.0	1.6	6.7	nt	-1	5
Cc1ccccc1CC1(CO)CCCN(C(=O)CCC(F)(F)F)C1 (configuration not stated)	-11	0.4	-3.4	?	0.4	4	1	0
COc1ccc(N(CC(=O)NC(C)(C)C)S(=O)(=O)c2ccccc2)cc1OC	-3	1.0	1.6	?	0.5	-2	30	5
COc1cccc(/C=N/NC(=S)NC2CC3CCC2C3)c1OC (configuration not stated)	1	0.4	0.6	3.1	nt	3	-1	-9
CCc1nnc(NC(=O)c2ccc(COc3ccccc3)o2)s1	-7	-0.8	1.0	?	2.4	-1	23	-2
Nc1nonc1-n1nnc(C(=O)N/N=C/c2ccc(OCc3ccccc3)cc2)c1COc1ccc(F)cc1	21	-0.3	3.6	1.8	nt	10	8	8
Cc1ccc(C(=O)CN(C(=O)c2ccc(Cl)c(Cl)c2)N2C(=O)C3CCCCC3C2=O)cc1 (configuration not stated)	-7	0.3	-0.6	3.1	0.8	-2	10	1
O=C(CSCc1ccccc1)Nc1ccc(F)cc1F	-27	0.2	1.2	-0.6	1.3	-7	-16	-4
COc1cc(-n2c(-c3ccccc3)n[nH]c2=S)c(OC)cc1Cl	3	-0.2	-3.6	-2.0	0.9	-2	28	-8
COC(=O)c1sccc1NC(=O)c1csc2c1CCCC2	nt	-1.1	2.7	2.5	1.9	1	6	0
O=C(NCC1CCCO1)c1ccc2c(c1)N(Cc1ccccc1)C(=O)CS2=O (configuration not stated)	-2	0.5	-2.7	0.8	2.4	nt	-1	-1
CC(C)C(=O)c1cc2c(cc1NC(=O)c1cccs1)OCCO2	26	-0.5	-2.5	8.3	-8.8	-3	-34	-10
CC(C)c1ccc(NC(=O)CCc2ccccc2)cc1	3	0.0	-3.4	1.6	2.0	19	0	-13

Some of the entries above, reformatted.
CC(C)C(=O)c1cc2c(cc1NC(=O)c1cccs1)OCCO2
  T cruzi repl = 26	A1 inh = -0.5	LANA-H2B inh = -2.5	RanGTP-Imp inh = 8.3	UCH37 inh = -8.8	Beta cell apopt = -3	Calb FLC = -34	B2AR ag = -10
Cc1ccc(C(=O)CN(C(=O)c2ccc(Cl)c(Cl)c2)N2C(=O)C3CCCCC3C2=O)cc1 (configuration not stated)
  T cruzi repl = -7	A1 inh = 0.3	LANA-H2B inh = -0.6	RanGTP-Imp inh = 3.1	UCH37 inh = 0.8	Beta cell apopt = -2	Calb FLC = 10	B2AR ag = 1
O=C(CSCc1ccccc1)Nc1ccc(F)cc1F
  T cruzi repl = -27	A1 inh = 0.2	LANA-H2B inh = 1.2	RanGTP-Imp inh = -0.6	UCH37 inh = 1.3	Beta cell apopt = -7	Calb FLC = -16	B2AR ag = -4
CC(=O)c1sc(NC(=O)C2CCN(C(=O)c3ccc(F)cc3)CC2)nc1-c1ccccc1
  T cruzi repl = 47	A1 inh = 0.2	LANA-H2B inh = -1.0	RanGTP-Imp inh = 1.6	UCH37 inh = 6.7	Beta cell apopt = nt	Calb FLC = -1	B2AR ag = 5

Other compounds
structure	T cruzi repl	A1 inh	LANA-H2B inh	RanGTP-Imp inh	UCH37 inh	Beta cell apopt	Calb FLC	B2AR ag
Cc1ccc(Oc2ccccc2NC(=O)CN2C(=O)NC3(CCCC3)C2=O)cc1	12	0.9	-1.6	4.5	3.0	-2	22	-1
O=C(COC(=O)c1ccc(NS(=O)(=O)c2ccc3c(c2)OCCO3)cc1)NC1CCS(=O)(=O)C1 (configuration not stated)	-4	0.3	1.9	?	0.9	-3	22	1
CCCCN(C)CCNS(=O)(=O)c1ccc2c(c1)n(C)c(=O)c(=O)n2C	11	0.4	-1.7	-5.6	0.3	-7	3	-5
Cc1ccc(C)c(NC(=O)c2ccc(OCc3c(C)noc3C)cc2)c1	nt	-1.0	7.1	nt	2.9	5	nt	-7
Cc1ccnn1-c1ccc(C(=O)NCC(c2ccco2)N2CCCC2)cc1 (configuration not stated)	nt	-0.8	0.7	nt	0.2	-1	nt	-8
CC1CSc2nc3sc4c(c3c(=O)n21)CCCC4 (configuration not stated)	4	-0.2	-0.6	4.3	2.9	-2	1	-13
